# TRPML1 inh: inhibitors of human TRPML1 channel | Q9GZU1 | 0.02% of 390,000 active | activity change, negative = inhibition, % (no concentration beside the values) | TRPML1-inducible cells, Ca2+ dye fluorescence, FDSS; hits give low values; inhibition of EC80 agonist-evoked calcium signal; in the data active means activity change below about -50%; inconclusive means about -30% to -50%; inactive means above about -30%;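 note: stimulus is agonist 54-4 at its EC80 concentration; % is set by controls: 0 for no effect and ±100 for the full control effect; compound concentration not given in the record; the text of the record puts the active cut at -80%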
# Target sequence (Q9GZU1 whole entry, looked up): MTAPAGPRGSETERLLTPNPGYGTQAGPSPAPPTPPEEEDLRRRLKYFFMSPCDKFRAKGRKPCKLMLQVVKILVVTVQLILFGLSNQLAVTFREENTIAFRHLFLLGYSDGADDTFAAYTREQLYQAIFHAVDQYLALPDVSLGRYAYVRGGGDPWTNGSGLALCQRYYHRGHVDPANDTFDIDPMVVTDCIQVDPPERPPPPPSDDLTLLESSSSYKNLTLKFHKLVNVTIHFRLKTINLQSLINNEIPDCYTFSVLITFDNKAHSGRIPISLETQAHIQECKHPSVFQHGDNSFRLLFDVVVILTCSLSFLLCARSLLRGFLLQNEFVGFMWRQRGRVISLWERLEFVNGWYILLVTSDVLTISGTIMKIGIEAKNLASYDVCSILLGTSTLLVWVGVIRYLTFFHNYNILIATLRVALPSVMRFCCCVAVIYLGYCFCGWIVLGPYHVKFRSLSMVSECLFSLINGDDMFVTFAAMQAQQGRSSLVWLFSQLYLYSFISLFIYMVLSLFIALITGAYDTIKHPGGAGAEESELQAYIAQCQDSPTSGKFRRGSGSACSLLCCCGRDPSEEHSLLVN
#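 Calcium fluorescence in TRPML1-DL cells induced overnight with Tet: a 110 s read after compound pin addition, then a 110 s antagonist read after challenge with 54-4 at 4 uM final (EC80).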
# TRPML1 ag: human mucolipin-1 channel agonism | AID 624414 | activation, % (test concentration not listed) | TRPML1-expressing cells, Ca2+ dye fluorescence, FDSS; host cell line not named in the record; reference of the full effect not given here | 0.12% of 410,000 active | Q9GZU1; in the data active = activation above about 50%; inconclusive = about 30% to 50%; inactive = below about 30%; note: 0% is about no effect; the text of the record puts the active cut at 80%
#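 TRPML1-DL cells, Tet-induced overnight (~16 h, 37 degrees C), loaded 45-90 min at room temperature with Ca8 no-wash calcium dye plus quencher. FDSS fluorescence: 10 s baseline, compound pin-transfer, 110 s agonist read, then EC80 54-4 (4uM final) and 110 s antagonist read.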
# D2 agonist: agonists of human D2 dopamine receptor (beta-arrestin). P14416. DiscoveRx PathHunter D2 beta-arrestin, luminescence, 90 min; 100% = 57 uM dopamine signal. activation, % (no concentration beside the values). 0.084% of 360,000 active. AID 624465; in the data active = activation above about 40%; inconclusive = about 15% to 40%; inactive = below about 15%; note: compound concentration not given in the record; the text of the record calls up to 30% inactive
# Target sequence (P14416 whole entry, looked up): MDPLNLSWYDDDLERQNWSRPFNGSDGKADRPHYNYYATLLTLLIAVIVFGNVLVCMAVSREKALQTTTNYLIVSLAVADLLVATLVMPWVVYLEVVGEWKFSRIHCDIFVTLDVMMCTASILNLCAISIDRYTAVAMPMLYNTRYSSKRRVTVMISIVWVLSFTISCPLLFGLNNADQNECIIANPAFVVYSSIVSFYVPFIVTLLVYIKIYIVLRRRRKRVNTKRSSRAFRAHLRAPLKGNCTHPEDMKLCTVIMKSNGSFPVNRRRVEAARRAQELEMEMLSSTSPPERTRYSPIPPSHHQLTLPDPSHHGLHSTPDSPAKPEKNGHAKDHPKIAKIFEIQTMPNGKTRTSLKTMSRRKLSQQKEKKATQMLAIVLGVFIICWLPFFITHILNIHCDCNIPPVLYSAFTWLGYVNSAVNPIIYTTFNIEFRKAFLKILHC
#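 DiscoveRx PathHunter D2 beta-arrestin cells (2,100/well) attached overnight, then compound-stimulated 90 min at 37 C in HBSS/10 mM HEPES/0.1% Tween-20 buffer; beta-galactosidase complementation read by luminescence after 1 h at ambient temperature. Dopamine 57 uM final (EC100) as control.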
# CtBP-E1A inh: inhibitors of CtBP/E1A interaction | 0.49% of 340,000 active | AlphaScreen GST-E1A/His-CtBP binding, 1536-well; hits give low values; control for the full effect not named in the record | activity change, % (test concentration not listed) | AID 651724; in the data active means activity change below about -65%; inconclusive means about -30% to -65%; inactive means above about -30%; note: % is set by controls: 0 for no effect and ±100 for the full control effect; compound concentration not given in the record
#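 GST-E1A and His-tagged CtBP (125 nM each as 5X stock) were preincubated with pin-transferred compound for 2 h at 37 °C in the dark, then glutathione donor and nickel acceptor beads were added for 1 h before AlphaScreen reading.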
# Six1-Eya2 blk: blocks human Six1 binding to Eya2; Q15475+O00167; AlphaScreen GST-Six1/His-Eya2 binding, biochemical; hits give low values; control for the full effect not named in the record; activity change, % (test concentration not listed); 0.56% of 360,000 active; AID 651725; in the data active = activity change below about -65%; inconclusive = about -30% to -65%; inactive = above about -30%; note: % is set by controls: 0 for no effect and ±100 for the full control effect; compound concentration not given in the record
#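 GST-Six1 + His-Eya2 (5X stock: 250/500 nM); Tris pH 8.0, 300 mM NaCl, 0.05% BSA, 0.02% Tween 20; GSH donor/Ni acceptor beads; 1 h 37 °C dark; AlphaScreen readout.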
# PINK1 expr mod: changes PINK1 expression; PINK1 immunofluorescence, high-content cytometry, 24 h; Potency, µM (series often up to 76.6 µM), inactives show at the top dose activation (PINK1 increase), hits mostly activators; 0.2% of 410,000 active; active = well fitted activation curve with a large enough effect; inconclusive = small, poorly fitted or top-dose-only effect; inactive = flat fitted curve, though single readings scatter; cell line not stated here;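 note: potency is the fitted concentration of half-maximal effect; % of control where 0% means no effect; nearly all actives have a fitted effect of over 65% in size; a mitochondrial uncoupler was the plate control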
#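 Stable cell line, 250 cells/well, 12 h attachment; compounds pinned at 5 concentrations, 24 h; CCCP control. Fixed with nuclear dye, primary antibodies 12 h at 10 degrees C, secondary plus cell stain; laser-scanning cytometer read.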
# An asterisk follows results filed as active; ? = inconclusive; / = no result given; [ ] = dose if it differs, or a comment. A portion of the library; rates above refer to the full screens.
structure	TRPML1 inh	TRPML1 ag	D2 agonist	CtBP-E1A inh	Six1-Eya2 blk	PINK1 expr mod
CCC(C)C1NC(=O)C(C(C)=O)=C1O (stereo not drawn)	-7	-0.5	-1.6	28	9	0.7%
Cc1ccc(CN2C(=O)NC(=O)C3(Cc4c(nc5ccccn5c4=O)N4CCCCCC43)C2=O)cc1 (stereo not drawn)	16	1.6	-1.7	0	-2	-0.2%[38.3 µM]
Nc1c(C(=O)OCc2ccccc2)c2nc3ccccc3nc2n1Cc1cccs1	23	-0.9	-3.7	26	18	-0.3%[38.3 µM]
COc1cccc2c1N=C1CCCC3CN(C(C)=O)CCC123 (stereo not drawn)	-5	-0.5	1.5	6	-3	-1.6%
CCc1ccc(NC(=O)CCNC(=O)N2C[C@H]3C[C@@H](C2)c2cccc(=O)n2C3)cc1	/	/	-4.3	15	2	2.0%
O=c1[nH]c(O)c(N=Nc2ccc([N+](=O)[O-])cc2)c(=O)[nH]1	-4	-0.2	-5.0	/	9	-2.8%
CC1c2ccccc2-n2nncc2CN1CC1CCCCC1 (stereo not drawn)	10	1.9	-2.5	1	3	0.5%
Cc1cccc(OP(=O)(Oc2ccccc2)OC(c2ccccc2)C(F)(F)F)c1 (stereo not drawn)	2	3.2	-3.1	45	24	15%

structure	TRPML1 inh	TRPML1 ag	D2 agonist	CtBP-E1A inh	Six1-Eya2 blk	PINK1 expr mod
CC1(C)C(C(=O)N2CCN(c3ccc(Cl)cc3)CC2)C1(C)C	/	/	-3.4	1	4	4.2%
CCC(CC)NCc1c[nH]c2ccccc12	24	4.5	-5.3	3	-1	-0.1%
CCOC(=O)c1c(-c2ccc(OC)cc2)oc2ccc(OC(=O)N(C)C)cc12	1	1.1	0.1	11	13	-2.0%
CC(=NCc1ccco1)c1c(O)n(-c2ccc(C)cc2)c(=O)[nH]c1=O	7	-0.4	-2.9	/	0	2.1%
CN1CCc2cc3c(c4c2C1Cc1ccccc1-4)OCO3 (stereo not drawn)	13	1.2	-4.0	?	-24	1.7%
C[C@]12CC[C@H](O)C[C@H]1CC[C@@H]1[C@@H]2C[C@@H](O)[C@]2(C)[C@@H](C3=CC(=O)OC3)CC[C@]12O	-9	-0.9	-2.7	-1	11	1.5%
c1ccc2c(c1)Sc1ccccc1N2CC1CN2CCC1CC2 (stereo not drawn)	7	0.1	-4.2	-11	-10	1.4%
O=C(c1ccncc1)C12CN3CN(CN(C3)C1)C2	9	0.0	-0.6	-3	2	-0.7%

structure	TRPML1 inh	TRPML1 ag	D2 agonist	CtBP-E1A inh	Six1-Eya2 blk	PINK1 expr mod
COc1ccccc1CNCCc1cccc(Cl)c1	-2	-0.3	-3.9	-4	1	1.7%
CCOc1ccccc1-n1c(O)c(C=NCc2ccc3c(c2)OCO3)c(=O)[nH]c1=O	0	-0.2	-1.6	-3	-2	-1.7%
CCCN1CCC(NC2CCC(O)CC2)CC1 (stereo not drawn)	8	-0.2	-0.5	-3	2	-1.8%
COC(=O)C1=C(c2cc3ccccc3o2)C[C@@H]2CC[C@H]1N2C(=O)N1CCOCC1	-6	-0.7	0.7	-2	-12	6.9%
Cc1[nH]c2ccccc2c1CN1CCCCC1	-17	0.7	-2.0	-1	-9	1.1%
Cc1ccc(OC(=O)N(C)C[C@@H]2OCc3cnnn3CCCC(=O)N([C@H](C)CO)C[C@H]2C)cc1	-6	-0.4	-7.5	1	-3	0.4%
COC(=O)c1cccc(NC(=O)N2C[C@H]3C[C@@H](C2)c2cccc(=O)n2C3)c1	/	/	2.3	6	6	-0.5%
Cc1cccc(C)c1-n1nnnc1C(c1cccs1)N1CCC2(CC1)C(=O)NCN2c1ccccc1 (stereo not drawn)	/	-0.3	-3.0	-17	-20	0.5%

structure	TRPML1 inh	TRPML1 ag	D2 agonist	CtBP-E1A inh	Six1-Eya2 blk	PINK1 expr mod
COc1ccc(NC(=O)N2C[C@@H]3C[C@@H](C2)c2cccc(=O)n2C3)c(OC)c1	/	/	-4.7	-2	1	-0.1%
Cc1ncc([N+](=O)[O-])n1CCOc1nonc1N	-10	0.5	-0.7	/	2	2.6%
CCOP(=S)(OCC)SCOC(=O)NCC(=O)OC	7	-0.9	-1.5	11	2	-0.2%
CCC(=NCc1cccnc1)c1c(O)n(C2CCCCC2)c(=O)[nH]c1=O	-4	-0.3	-1.7	1	2	-1.3%
O=Cc1cn(Cc2c(F)cccc2Cl)c2ccccc12	-1	0.6	0.7	/	7	7.2%
C[C@]12C=CC(=O)C=C1CC[C@@H]1[C@@H]2CC[C@]2(C)C(=O)CC[C@@H]12	/	/	2.9	1	1	2.0%
COc1ccc(Cc2c(O)[nH]c(=O)[nH]c2=O)c(OC)c1	-17	1.0	-0.6	4	10	0.3%
N#CC12CNCC1CN=N2 (stereo not drawn)	6	0.1	5.7	/	-1	-0.4%

structure	TRPML1 inh	TRPML1 ag	D2 agonist	CtBP-E1A inh	Six1-Eya2 blk	PINK1 expr mod
Cc1ccc2occ(CN3CC4CC(C3)c3cccc(=O)n3C4)c(=O)c2c1 (stereo not drawn)	25	0.2	-1.3	9	4	/
Cc1ccccc1CN1Cc2cnnn2-c2ccccc2C1C#N (stereo not drawn)	6	1.9	1.0	-13	-6	-1.8%
O=C(CSc1ccccc1)N1CCC2(CC1)OCCO2	-15	0.3	-1.0	9	1	?
O=c1[nH]c2ccccc2n1C1CCN(C(c2cccc3ccccc23)c2nnnn2Cc2ccccc2)CC1 (stereo not drawn)	-1	0.9	?	-10	-11	0.2%
COC(=O)C1C2CC[C@@H](CC1OC(=O)c1ccccc1)N2 (stereo partly drawn)	0	-0.7	8.3	5	5	0.6%
CC(CCc1ccccc1)NCCC#N (stereo not drawn)	-6	-0.2	10	9	9	1.4%
Cc1ccc2c(c1)C1CN(C)CCC1N2S(=O)(=O)c1ccccc1 (stereo not drawn)	29	0.3	-1.1	-1	-2	/
Cc1c(C)c2ccc(OCC(=O)N3CCN(Cc4ccccc4)CC3)cc2oc1=O	-8	0.1	-1.5	-7	-2	0.0%

structure	TRPML1 inh	TRPML1 ag	D2 agonist	CtBP-E1A inh	Six1-Eya2 blk	PINK1 expr mod
CCCN1C2CCCC1CC(NC(C)=O)C2 (stereo not drawn)	-3	0.5	-0.8	7	3	0.7%
CC(NS(=O)(=O)OCC(Cl)(Cl)Cl)c1ccccc1 (stereo not drawn)	-12	0.8	-1.9	4	7	0.3%
CSc1ccc(C(=O)C2CCCN(Cc3cnc(SC)nc3)C2)cc1 (stereo not drawn)	-1	0.0	-3.8	-6	-27	-1.6%
CN1CCN(C(=O)COc2ccc(Oc3ccccc3)cc2)CC1	9	0.5	-1.3	-10	6	0.9%
Cn1nc(N)c2c1N=P(N1CCOCC1)(N1CCOCC1)N=C2c1ccccc1	11	0.6	-4.3	7	-1	/
COC(=O)C1=C(c2ccc(F)cc2F)C[C@@H]2CC[C@H]1N2C(=O)NCc1ccc(C(F)(F)F)cc1	6	0.5	0.3	0	-14	3.3%
O=C(CN1CCCCC1)c1ccc(OC(F)F)cc1	21	0.1	-10	-20	9	0.6%
C#CC1(O)CCC2C3CCC4=CC(=O)CCC4=C3C=CC21C (stereo not drawn)	-2	0.3	2.1	2	5	-4.8%

# Molecules from the list above that contain a thiophene ring, fused or not, in the order listed:
structure	TRPML1 inh	TRPML1 ag	D2 agonist	CtBP-E1A inh	Six1-Eya2 blk	PINK1 expr mod
Nc1c(C(=O)OCc2ccccc2)c2nc3ccccc3nc2n1Cc1cccs1	23	-0.9	-3.7	26	18	-0.3%[38.3 µM]
Cc1cccc(C)c1-n1nnnc1C(c1cccs1)N1CCC2(CC1)C(=O)NCN2c1ccccc1 (stereo not drawn)	/	-0.3	-3.0	-17	-20	0.5%

# The list continues:
structure	TRPML1 inh	TRPML1 ag	D2 agonist	CtBP-E1A inh	Six1-Eya2 blk	PINK1 expr mod
O=C(COc1ccc(Cl)cc1)N1CCN(Cc2ccc([N+](=O)[O-])cc2)CC1	0	-1.0	2.0	/	-9	0.1%
CNC(=O)Oc1ccc(-c2cn3cc(C)ccc3n2)cc1	6	0.1	4.9	-14	-5	-4.7%
COC(=O)C1=C(c2ccc(OC)c(OC)c2)C[C@@H]2CC[C@H]1N2C(=O)N1CCCCC1	2	0.1	-1.4	-14	1	0.7%
O=C1NC(=O)N(Cc2ccco2)C(=O)/C1=C\c1cccn1CCOc1ccc(Cl)cc1	-3	0.1	1.0	19	-17	-3.3%
O=[N+]([O-])c1ccc(NCc2ccccc2)c2nonc12	-17	77*	4.7	3	0	40µM*
COc1cccc(-c2nc(CS(=O)CC(=O)N3CCC4(CC3)OCCO4)c(C)o2)c1 (stereo not drawn)	7	-0.2	-2.0	8	-3	-1.3%
O=c1[nH]c2ccccc2n1C1CCN(C(c2ccccc2)c2nnnn2-c2ccc3c(c2)OCCO3)CC1 (stereo not drawn)	18	0.3	0.6	-13	-15	-0.9%
CCCC(=O)Nc1ccc(N2CCN(CC)CC2)c(Cl)c1	9	0.2	-1.5	10	6	1.5%

structure	TRPML1 inh	TRPML1 ag	D2 agonist	CtBP-E1A inh	Six1-Eya2 blk	PINK1 expr mod
CCC1(c2ccccc2)C(=O)NC(=S)NC1=O	-4	-0.2	0.0	4	2	-2.1%
BrCC(Br)(Br)Br	6	0.2	-3.6	-1	3	1.6%
COCCN1C(=O)/C(=C/c2c(OC)cc(OC)cc2OC)C(=O)N(c2ccccc2)C1=O	/	/	-1.7	11	-1	2.1%
O=C1NC(=O)N(CCc2ccc(F)cc2)C(=O)/C1=C\C=C\c1ccccc1	-1	1.2	-3.5	-2	21	9.4%
COc1cccc(CN2CCCCC2c2cccnc2)c1 (stereo not drawn)	49	5.0	-1.1	1	1	/
COc1nc(C)nc(NC(=O)NS(=O)(=O)c2ccccc2Cl)n1	7	-0.3	-4.5	7	-14	1.7%
CCS(=O)(=O)Nc1cccc(C(=C2CCCCC2)c2cnc[nH]2)c1	5	0.1	5.0	-12	-2	0.9%
COc1ccc(-c2cc(=NCCC(=O)O)c3cc(C)ccc3o2)cc1	3	0.6	-5.7	-5	?	4.0%

structure	TRPML1 inh	TRPML1 ag	D2 agonist	CtBP-E1A inh	Six1-Eya2 blk	PINK1 expr mod
O=[N+]([O-])c1ccc(NCc2ccc(Cl)cc2)c2ccncc12	3	0.0	5.2	2	-3	5.4%
c1coc(CN2Cc3ccccc3-n3nncc3C2)c1	14	0.3	-9.3	-13	-1	0.6%
CCn1ccnc1CN1CCCC(C(=O)c2cc(F)ccc2OC)C1 (stereo not drawn)	15	0.3	-3.1	2	5	1.4%
Cc1ccc(-c2cc(-c3ccc(C)cc3)[n+](C)o2)cc1	3	0.0	2.1	9	2	27%
CCOC(=O)c1c(C)n(Cc2ccco2)c2ccc(O)cc12	-4	0.3	1.4	-6	-10	0.4%
Cn1c(=O)n(C)c2cc(CNCCc3ccc(F)cc3)ccc21	-4	-0.5	/	/	/	-0.2%
CCOc1ccc(NC(=O)Cn2cc(C(=O)c3ccccc3)c3ccccc32)cc1	-7	2.4	/	/	/	1.8%
CCOC(=O)c1c(-n2c(C)cc(/C=C3\C(=O)NC(=O)N(C)C3=O)c2C)sc2c1CCCC2	47	0.8	0.7	-15	1	-1.7%

# Compound activity from PubChem BioAssay.
